# Sfp inh: inhibitors of Bacillus subtilis Sfp phosphopantetheinyl transferase; 310,000 tested, 3.5% active; Q9F4F7; Potency, µM, without a hit: max response, negative = inhibition, most hits filed as inhibitors; Biochemical Sfp PPTase activity, qHTS; active means well fitted inhibition curve with a large enough effect; inconclusive means small, poorly fitted or top-dose-only effect, or another doubt; inactive means no such curve, though single readings can be large or run the other way;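 further: the enzyme is Sfp with the accession as filed and its product quenches rhodamine fluorescence; potency means the concentration at half of the fitted maximal effect; 0% = enzyme reaction without inhibitor and -100% = no enzyme wells; top concentration of the series not given in the record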
#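 With Hepes-Na pH 7.6 buffer containing 10 mM MgCl2, Sfp (15 nM) modified BHQ-2-YbbR (12.5 uM) using rhodamine-CoA (5 uM). Two reads 30 minutes apart at 525/598 nm yielded each well's rate.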
# Menin-MLL FL inh: displaces fluorescein MLL peptide from human menin | Fluorescence polarization, fluorescein-MLL peptide displacement from menin | FP activity change, % at 61.4 µM | 290,000 tested, under 10 active; inconclusive = falling polarisation curve, or a change in total fluorescence; inactive = total fluorescence flat and polarisation flat or rising; no compound was filed as active; the % refers to the polarisation; negative = inhibition;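 further: % of control where 0% means no effect; inhibitors lower the polarisation; unlabelled MLL peptide was the positive control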
# ClpP mod: qHTS Assay for Activators of ClpP. ATP-dependent Clp protease proteolytic subunit (Bacillus subtilis (strain 168)), P80244. purified B. subtilis ClpP, FRET peptide cleavage, 20 min. Potency, µM (doses to about 57.5 µM), for the others: at the highest dose activity change, negative = active. 340,000 tested, 1.9% active; active = well fitted falling curve with a large enough effect; inconclusive = small, poorly fitted or top-dose-only effect; inactive = no such curve, though single readings can be large or run the other way; further: potency means the concentration at half of the fitted maximal effect; the source files actives as falling curves though it sought activators and does not explain the sign; nearly all actives have a fitted effect of over 65% in size; many hits overshoot -100%
#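 FRET quenching reversal measured ClpP activation: 10 microg/mL B. subtilis ClpP at pH 8 with the FRET-FV decapeptide, read at 430 nm after 320 nm excitation. The 20-min minus 0-min signal was scaled between DMSO/no-enzyme wells and ADEP (5.8 microM final).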
# gsp antagonist: antagonizes gsp, the McCune-Albright syndrome mutation. gsp-mutant cells, cAMP HTRF, 30 min; control for the full effect not named in the record. Potency, µM (highest dose often 76.9 µM), inactives show at the highest dose activity change, negative = inhibition, usual class: inhibitors. 340,000 tested, 0.4% active; active = falling curve of any shape with a large fitted effect; inconclusive = falling curve, mostly with a smaller effect; inactive = flat or rising curve; cell line not stated here;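 further: intracellular cAMP measured with PDE inhibitor Ro 20-1724 present during compound exposure; potency means the concentration at half of the fitted maximal effect; on the % scale 0 is the no-effect control and ±100 the full control effect; nearly all actives have a fitted effect of over 65% in size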
#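 Measurement of cellular cAMP by homogeneous time-resolved fluorescence following a 30 min compound exposure at 37C. The PDE inhibitor […] was present throughout; the assay buffer was DPBS with 0.05% BSA and 0.005% Tween 20.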
# TRPV1 PAM: human TRPV1 potentiation. Q8NER1. TRPV1-expressing cells, Fluo-8 calcium influx, capsaicin EC20 potentiation; host cell line not named in the record; control for the full effect not named in the record. potentiation, % at 8.33 µM. 320,000 tested, 0.02% active; active means potentiation above 80%; inconclusive means 30% to 80%; inactive means below 30%; further: 0% is about no effect
# Target sequence (Q8NER1 whole entry, looked up): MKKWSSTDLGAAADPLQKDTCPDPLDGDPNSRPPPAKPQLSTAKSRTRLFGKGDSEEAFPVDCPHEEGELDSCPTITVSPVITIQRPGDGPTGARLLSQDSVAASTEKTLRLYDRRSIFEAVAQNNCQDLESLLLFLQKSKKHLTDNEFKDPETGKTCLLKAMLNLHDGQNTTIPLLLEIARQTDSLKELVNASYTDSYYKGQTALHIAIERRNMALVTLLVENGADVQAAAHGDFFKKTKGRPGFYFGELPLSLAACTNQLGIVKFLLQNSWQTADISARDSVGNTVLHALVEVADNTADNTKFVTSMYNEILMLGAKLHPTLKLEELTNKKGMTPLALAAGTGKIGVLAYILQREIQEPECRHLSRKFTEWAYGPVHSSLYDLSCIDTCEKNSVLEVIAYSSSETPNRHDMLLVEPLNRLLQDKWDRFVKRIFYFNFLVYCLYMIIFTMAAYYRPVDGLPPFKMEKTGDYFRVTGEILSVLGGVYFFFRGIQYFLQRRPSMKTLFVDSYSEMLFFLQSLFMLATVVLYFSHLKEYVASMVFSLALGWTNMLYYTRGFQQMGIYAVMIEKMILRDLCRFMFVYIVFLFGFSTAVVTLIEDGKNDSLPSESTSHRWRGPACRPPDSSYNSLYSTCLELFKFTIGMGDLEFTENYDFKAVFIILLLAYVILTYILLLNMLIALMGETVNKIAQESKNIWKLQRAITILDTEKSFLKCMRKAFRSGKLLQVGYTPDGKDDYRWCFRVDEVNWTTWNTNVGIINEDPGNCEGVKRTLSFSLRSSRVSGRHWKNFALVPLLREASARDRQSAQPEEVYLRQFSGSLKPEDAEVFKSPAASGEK
#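 TRPV1-expressing cells were cultured overnight at 35.5C and loaded with Fluo-8 calcium dye for 40 to 90 min at room temperature. After a 10 s baseline, compound was added and calcium influx was read kinetically for 3 min (ex 480/em 520 nm).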
# gsp agonist: gsp mutant agonism; gsp mutant cells, cAMP HTRF, 30 min; control for the full effect not named in the record; 340,000 tested, 0.13% active; Potency, µM (highest dose often 76.9 µM), without a hit: at the top dose activation (cAMP increase), actives largely listed as activators; active = well fitted activation curve with a large enough effect; inconclusive = small, poorly fitted or top-dose-only effect, or another doubt; inactive = no such curve, though single readings can be large or run the other way; cell line not stated here;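 further: phosphodiesterase inhibitor Ro 20-1724 added with compounds to block cAMP breakdown; potency means the concentration at half of the fitted maximal effect; nearly all actives have a fitted effect of over 60% in size; about a fifth of the inactives were tested at one dose only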
#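 Cells stably selected in G418 were plated at 2000/well, grown 16-24 hr, then given compounds in DMSO with the PDE inhibitor […] (300 uM solution added) for 30 min at 37C; cAMP was read by HTRF.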
# TRPML1 blocker: inhibitors of human TRPML1 channel | TRPML1-inducible cells, Ca2+ dye fluorescence, FDSS; stronger effect = lower value; inhibition of EC80 agonist-evoked calcium signal | AID 624415 | 390,000 tested, 0.02% active | Q9GZU1 | activity change, negative = inhibition, % (concentration not given with the values); in the data active means activity change below about -50%; inconclusive means about -30% to -50%; inactive means above about -30%;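 further: stimulus is agonist 54-4 at its EC80 concentration; on the % scale 0 is the no-effect control and ±100 the full control effect; compound concentration not given in the record; the text of the record puts the active cut at -80%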
#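 Tet-induced TRPML1-DL cells loaded with Ca8 no-wash calcium dye were read kinetically on FDSS. Compound addition was followed by EC80 agonist 54-4 (4 uM final); inhibition was read over 110 s.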
# An asterisk follows results filed as active; ? = inconclusive; · = no result given; & = joins results of further samples; [ ] = dose if it differs, or a comment.
# Below each compound: Sfp inh, Menin-MLL FL inh, ClpP mod, gsp antagonist, TRPV1 PAM, gsp agonist, TRPML1 blocker
1: O=C(N/N=C/c1cccnc1)c1cc(-c2ccccc2Cl)nc2ccccc12
  5%, 2.5, 1.1%, 11%, 14, -11%[15.4 µM], 6
2: Cc1ccc(NC(=O)CCC(=O)c2ccc(Cl)s2)nc1
  ·, ·, -3.9%, 0%, 12, ?, -6
3: Cc1cc(C)c(O)c(-c2cc(C(=O)Nc3c(C)n(C)n(-c4ccccc4)c3=O)[nH]n2)c1
  -6%, 4.8, -0.4%, 2%, 11, ?, 13
4: COc1cccc(CN(C)CC(O)COc2cc(Cl)ccc2Cl)c1 (centres undefined)
  -17%, 3.3, -1.0%, 9%, 10, -14%, 10
5: COC(=O)c1cn(CC(=O)N2CCCCC2C)c2ccccc12 (centres undefined)
  18%, 1.6, -4.2%, 10%, 3, ?, -1
6: CCC1(c2ccccc2)NC(=O)N(CC(=O)NCc2ccc(C)cc2)C1=O (centres undefined)
  26%, 2.9, -0.8%, -1%, -11, 12%[15.4 µM], -22
7: Cc1ccc(N(C)C(=O)N2CCN(S(=O)(=O)c3c(C)cc(C)cc3C)CC2)cc1
  -19%, 3.2, -3.6%, 8%, 1, 5%, -3
8: COCC(=O)N1CCC(Oc2ccc(C(=O)NC(C)c3nccs3)cc2)CC1 (centres undefined)
  25%, ·, -4.4%, 10%, 1, -36%[inhibitor], -17
9: CC(Nc1nc(-c2ccc(F)cc2)cs1)c1nc2cc(C(F)(F)F)ccc2n1CCOCCO (centres undefined)
  ·, ·, 0.8%, 4%, ·, ·, -4
10: CC(=O)NC12CC3CC(C1)CC(C(=O)N(C)CC(=O)Nc1ccccc1Cl)(C3)C2
  ·, ·, -4.1%, 5%, -1, -9%, -4
11: CC(=O)OC1OCCOC1NC(=S)Nc1cccc(C(F)(F)F)c1 (centres undefined)
  -23%, -7.1, ·, 5%, 4, -32%[inhibitor], 1
12: CCOc1ccc(C2/C(=C(/O)c3ccc(Cl)cc3)C(=O)C(=O)N2CCCN(C)C)cc1OC (centres undefined)
  15%, -0.3, ·, ·, -25, ·, ·
13: CCCOc1ccc(C(=O)Nc2ccc(N(C)C)cc2)cc1
  10%, 1.0, 0.9%, -4%, -19, 30%, -6
14: CCOC(=O)c1c(NC(=S)Nc2ccccc2)sc2c1CCN(CC)C2
  ?, ?, 2.3%, -6%, -13, ?, -7
15: COc1ccccc1Nc1nc2cc(C)ccc2cc1C#N
  18%, 0.3, ·, ·, 8, 48%[15.4 µM], 4
16: COc1ccc(CNC(=O)c2nn(C)c3c2CS(=O)(=O)c2ccccc2-3)cc1
  14%, 1.3, -5.7%&-5.7%, -5%, ?, 10%, 5&-6
17: NC(=O)c1cc(Cl)ccc1OCC(=O)NC1CC1
  ·, ·, ·, 8%, ·, 8%, -5
18: Cc1nn(-c2ccccc2)c(Cl)c1/C=N/Nc1ccc(S(=O)(=O)Nc2ccccc2C(=O)O)cc1[N+](=O)[O-]
  -21%, 3.1, -1.0%, -11%, -4, 3%, -12
19: N#Cc1ccsc1NC(=O)CSc1ncnc2ccccc12
  -22%, 14, -3.7%, 0%[15.4 µM], 9, 29%, 25
20: Cc1cc(C(=O)Nc2ccc(F)cc2F)on1
  6%, -2.5, 4.5%, 9%, 13, -4%, -9

# Quoted from the listing.
# entry 9 | ClpP mod = 0.8%
# entry 10 | gsp antagonist = 5%
# entry 17 | gsp agonist = 8%
# entry 5 | Sfp inh = 18%

# Nos. 1 to 4, quoted:
# Below each compound: Sfp inh, Menin-MLL FL inh, ClpP mod, gsp antagonist, TRPV1 PAM, gsp agonist, TRPML1 blocker
1: O=C(N/N=C/c1cccnc1)c1cc(-c2ccccc2Cl)nc2ccccc12
  5%, 2.5, 1.1%, 11%, 14, -11%[15.4 µM], 6
2: Cc1ccc(NC(=O)CCC(=O)c2ccc(Cl)s2)nc1
  ·, ·, -3.9%, 0%, 12, ?, -6
3: Cc1cc(C)c(O)c(-c2cc(C(=O)Nc3c(C)n(C)n(-c4ccccc4)c3=O)[nH]n2)c1
  -6%, 4.8, -0.4%, 2%, 11, ?, 13
4: COc1cccc(CN(C)CC(O)COc2cc(Cl)ccc2Cl)c1 (centres undefined)
  -17%, 3.3, -1.0%, 9%, 10, -14%, 10

# New compounds follow
# Below each compound: Sfp inh, Menin-MLL FL inh, ClpP mod, gsp antagonist, TRPV1 PAM, gsp agonist, TRPML1 blocker
21: CC(C)N(Cc1ccccc1)C(=O)CN1C(=O)COc2ccc(S(=O)(=O)NC3CCCC3)cc21
  13%, -0.2, -1.5%&-0.9%, -21%, 1, -44%[inhibitor], 20&-13
22: COc1ccc(C(=O)N2CCN(Cc3ccccn3)CC2)cc1
  56µM*, 1.1, 0.6%, 9%, -10, 13%, 7
23: Cc1cc2c(SCC(=O)NC3CCCCC3)ncnc2s1
  25%, 0.1, ·, -1%, 8, -3%, ?
24: COc1ccc(C(=O)C2CCCN(Cc3cccn3-c3nccs3)C2)cc1OC (centres undefined)
  -3%, 2.0, ?, 11%, -11, 1%, -17
25: Cc1nn(C)c(C(=O)NCc2ccc(Cl)cc2)c1Cl
  8%, 1.4, 2.4%, -9%, -43, 1%, -10
26: Cc1nn(C)cc1C(C(=O)NC1CCCCC1)N(Cc1ccccc1Cl)C(=O)c1cnccn1 (centres undefined)
  9%, 2.3, 1.3%, -3%, 3, 0%, 17
27: Cc1oc(-c2ccccc2)nc1C(=O)OCC(=O)NCc1ccc(Cl)cc1
  ·, ·, 2.8%, -3%, -7, -62%[inhibitor], 6
28: Cc1ccc(C)c(NC(=O)CSc2nccn2Cc2ccco2)c1
  7%, 0.0, -1.4%, -25%, 9, 0%, -22
29: CCOc1cc(NC(=S)NCC2CCCO2)c(OCC)cc1NC(=O)c1ccccc1C (centres undefined)
  23%, 0.2, 1.3%, -20%, -8, -3%, 4
30: O=C(OCc1ccc(-c2ccccc2)cc1)c1cccc(O)c1
  -2%, ·, -2.4%, -19%, 1, ?, 14
31: COc1ccc(/C=C2/SC(=S)N(n3c(C)ccc3C)C2=O)cc1
  -4%, 2.2, -0.9%, ?, 2, -35%[inhibitor], 51
32: CCCCCN1CC(=O)N2Cc3[nH]c4ccccc4c3C[C@H]2C1=O
  16%, -0.9, ·, -3%, -18, 3%[15.4 µM], 7

# Complete entries as entered above. Order of screens: Sfp inh, Menin-MLL FL inh, ClpP mod, gsp antagonist, TRPV1 PAM, gsp agonist, TRPML1 blocker
# `Cc1cc2c(SCC(=O)NC3CCCCC3)ncnc2s1` in the list: 25%, 0.1, ·, -1%, 8, -3%, ?
# `O=C(OCc1ccc(-c2ccccc2)cc1)c1cccc(O)c1` in the list: -2%, ·, -2.4%, -19%, 1, ?, 14
# `COc1ccc(C(=O)N2CCN(Cc3ccccn3)CC2)cc1` in the list: 56µM*, 1.1, 0.6%, 9%, -10, 13%, 7

# Grouped by structure: the compounds so far with a CF3 group.
# Below each compound: Sfp inh, Menin-MLL FL inh, ClpP mod, gsp antagonist, TRPV1 PAM, gsp agonist, TRPML1 blocker
9: CC(Nc1nc(-c2ccc(F)cc2)cs1)c1nc2cc(C(F)(F)F)ccc2n1CCOCCO (centres undefined)
  ·, ·, 0.8%, 4%, ·, ·, -4
11: CC(=O)OC1OCCOC1NC(=S)Nc1cccc(C(F)(F)F)c1 (centres undefined)
  -23%, -7.1, ·, 5%, 4, -32%[inhibitor], 1
